Menin MLL FP FL – qHTS Assay for Inhibitors Targeting the Menin-MLL Interaction in MLL Related Leukemias: Competition With Fluorescein Labeled MLL-derived Peptide; Fluorescence polarization, fluorescein-MLL peptide displacement from menin; FP activity change, % at 61.4 µM; 290,000 tested, under 10 active; AID 1766, 2009; inconclusive = falling polarisation curve, or a change in total fluorescence; inactive = total fluorescence flat and polarisation flat or rising; no compound was filed as active; the % refers to the polarisation; negative = inhibition;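 also: % of control where 0% means no effect; inhibitors lower the polarisation; unlabelled MLL peptide was the positive control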
gsp antag – qHTS for Antagonists of gsp, the Etiologic Mutation Responsible for Fibrous Dysplasia/McCune-Albright Syndrome: qHTS; gsp-mutant cells, cAMP HTRF, 30 min; control for the full effect not named in the record; Potency, µM (top dose mostly 76.9 µM), for inactives: at the highest dose activity change, negative = inhibition, actives largely listed as inhibitors; hit rate 0.4% among 340,000; active = falling curve of any shape with a large fitted effect; inconclusive = falling curve, mostly with a smaller effect; inactive = flat or rising curve; cell line not stated here;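 also: intracellular cAMP measured with PDE inhibitor Ro 20-1724 present during compound exposure; potency is read from the fitted curve at half-maximal effect; % is scaled to controls: 0 for no effect and ±100 for the full control effect; nearly all actives have a fitted effect of over 65% in size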
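Cells, 2000/well, grown 16–24 h in DMEM 10% FBS with 0.5 mg/ml G418, then compounds plus […] (300 uM addition stock), 30 min at 37C. cAMP read by HTRF (cAMP-d2 and anti-cAMP antibody-K in lysis buffer) after 30 min RT.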
gsp agonist – qHTS for Agonist of gsp, the Etiologic Mutation Responsible for Fibrous Dysplasia/McCune-Albright Syndrome: qHTS; gsp mutant cells, cAMP HTRF, 30 min; control for the full effect not named in the record; Potency, µM (titrated, usually from 76.9 µM), inactives show top-dose activation (cAMP increase), actives largely listed as activators; hit rate 0.13% among 340,000; active = well fitted activation curve with a large enough effect; inconclusive = small, poorly fitted or top-dose-only effect, or another doubt; inactive = no such curve, though single readings can be large or run the other way; cell line not stated here;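 also: phosphodiesterase inhibitor Ro 20-1724 added with compounds to block cAMP breakdown; potency is read from the fitted curve at half-maximal effect; nearly all actives have a fitted effect of over 60% in size; about a fifth of the inactives were tested at one dose only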
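Cells stably selected in G418 were plated at 2000/well, grown 16-24 hr, then given compounds in DMSO with the PDE inhibitor […] (300 uM solution added) for 30 min at 37C; cAMP was read by HTRF.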
ClpP mod – qHTS Assay for Activators of ClpP. purified B. subtilis ClpP, FRET peptide cleavage, 20 min. Potency, µM (series often up to 57.5 µM), inactives show at the highest dose activity change, negative = active. hit rate 1.9% among 340,000; active = well fitted falling curve with a large enough effect; inconclusive = small, poorly fitted or top-dose-only effect; inactive = no such curve, though single readings can be large or run the other way; also: potency is read from the fitted curve at half-maximal effect; the source files actives as falling curves though it sought activators and does not explain the sign; nearly all actives have a fitted effect of over 65% in size; many hits overshoot -100%
Target sequence (P80244 whole entry, looked up): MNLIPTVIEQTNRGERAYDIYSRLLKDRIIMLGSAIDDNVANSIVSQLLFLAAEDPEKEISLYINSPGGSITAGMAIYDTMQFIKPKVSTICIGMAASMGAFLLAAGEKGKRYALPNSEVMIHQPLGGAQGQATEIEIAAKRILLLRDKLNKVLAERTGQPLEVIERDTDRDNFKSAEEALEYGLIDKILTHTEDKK
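ClpP 10 microg/mL final, pH 8 Tris/KCl buffer with BSA, glycerol, Tween-20; compound pinned in; FRET-FV substrate; RT 20 min; Ex320/Em430; ΔFRET vs ADEP 5.8 microM, DMSO, no enzyme.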
TRPML1 blocker – qHTS for Inhibitors of the Human Mucolipin Transient Receptor Potential 1 (TRPML1); TRPML1-inducible cells, Ca2+ dye fluorescence, FDSS; hits give low values; inhibition of EC80 agonist-evoked calcium signal; activity change, negative = inhibition, % (test concentration not listed); hit rate 0.02% among 390,000; AID 624415, 2012; in the data active means activity change below about -50%; inconclusive means about -30% to -50%; inactive means above about -30%;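 also: stimulus is agonist 54-4 at its EC80 concentration; % is scaled to controls: 0 for no effect and ±100 for the full control effect; compound concentration not given in the record; the text of the record puts the active cut at -80%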
Target sequence (Q9GZU1 whole entry, looked up): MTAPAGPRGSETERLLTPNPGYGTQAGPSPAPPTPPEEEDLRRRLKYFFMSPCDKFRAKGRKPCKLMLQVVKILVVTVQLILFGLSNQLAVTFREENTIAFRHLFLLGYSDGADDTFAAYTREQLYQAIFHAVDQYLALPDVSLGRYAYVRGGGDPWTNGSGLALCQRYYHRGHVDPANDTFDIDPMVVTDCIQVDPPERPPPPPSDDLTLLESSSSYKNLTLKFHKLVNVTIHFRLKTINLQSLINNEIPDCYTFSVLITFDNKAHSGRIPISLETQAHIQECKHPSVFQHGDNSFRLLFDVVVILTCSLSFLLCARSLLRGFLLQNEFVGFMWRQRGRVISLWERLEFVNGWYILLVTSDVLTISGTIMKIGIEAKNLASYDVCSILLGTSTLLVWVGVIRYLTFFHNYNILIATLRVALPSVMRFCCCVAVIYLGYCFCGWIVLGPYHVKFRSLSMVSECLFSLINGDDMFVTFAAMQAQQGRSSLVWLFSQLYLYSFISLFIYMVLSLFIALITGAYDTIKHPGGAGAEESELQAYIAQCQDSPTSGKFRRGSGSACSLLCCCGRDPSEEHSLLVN
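Tet-induced TRPML1-DL cells loaded with Ca8 no-wash calcium dye were read kinetically on FDSS. Compound addition was followed by EC80 agonist 54-4 (4 uM final); inhibition was read over 110 s.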
TRPML1 agonist – qHTS for Agonists of the Human Mucolipin Transient Receptor Potential 1 (TRPML1); hit rate 0.12% among 410,000; TRPML1-expressing cells, Ca2+ dye fluorescence, FDSS; host cell line not named in the record; reference of the full effect not given here; AID 624414, 2012; activation, % (test concentration not listed); Mucolipin-1 (Homo sapiens), Q9GZU1; in the data active = activation above about 50%; inconclusive = about 30% to 50%; inactive = below about 30%; also: 0% is about no effect; the text of the record puts the active cut at 80%
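TRPML1-DL cells, Tet-induced overnight (~16 h, 37 degrees C), loaded 45-90 min at room temperature with Ca8 no-wash calcium dye plus quencher. FDSS fluorescence: 10 s baseline, compound pin-transfer, 110 s agonist read, then EC80 54-4 (4uM final) and 110 s antagonist read.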
* marks the source's active call; other numbers are inactive results; ? = inconclusive; . = not tested or not shown; & = joins results of further samples; [ ] = dose if it differs, or a comment.

SMILES | Menin MLL FP FL | gsp antag | gsp agonist | ClpP mod | TRPML1 blocker | TRPML1 agonist
COc1ccc([C@@H]2[C@@H]3C(=O)N(C(C)(C)C)C(=O)[C@@H]3[C@]3(Cc4ccc(Cl)cc4)C(=O)N(c4ccc(Br)cc4)C(=O)N23)cc1 | -8.3 | -13% | . | -7.7% | 24 | 1.3
CN(C)c1cncc(C(=O)O)c1 | ? | 5% | 12% | -23% | 13 | -0.2
Cc1ccc(C)c(CN2CCC(CNC(=O)Nc3ccc(C)c(F)c3)CC2)c1 | -3.6 | 8% | -8% | -0.5% | 13 | 0.7
Cc1ccc(-c2nc3ccccn3c2Nc2ccccc2C)s1 | . | . | . | 3.9% | 2 | 1.5
O=C(CNC(=O)c1ccco1)NCC(=O)OCc1ccc(Cl)cc1Cl | 4.3 | -13% | -6%[15.4 µM] | . | 1 | -0.6
O=C(Cc1ccccc1)Nc1c(C(=O)N2CCOCC2)cnn1-c1ccccc1 | 1.9 | 4% | -62%[inhibitor] | 0.7% | 36 | -0.6
O=C(CN1C(=O)NC2(CCCC2)C1=O)Nc1ccccc1F | -0.1 | 8% | ? | -1.2% | -4 | 0.7
COc1ccc(/C=N/OCC(=O)Nc2nc3ccccc3s2)cc1 | . | 11% | -3% | -3.0% | 26 | 0.1
CCCN(C(=O)COC(=O)CSc1ccc(C(N)=O)cc1[N+](=O)[O-])C1CCS(=O)(=O)C1 (centres undefined) | . | -8% | -27% | -1.0% | 1 | 0.5
O=C(Cn1cnc2c(OCc3ccccc3)ncnc21)NCCc1c[nH]c2ccccc12 | . | -14% | . | -0.3% | 13 | 0.4
Fc1ccccc1-c1nc(-c2ccc(Br)o2)no1 | -2.9 | -16% | -5% | 1.4% | . | .
Cc1ccccc1CSc1nnc(-c2ccccn2)n1C | -0.2 | -3% | -9% | . | 13 | -0.1
Cc1cc(NC(=O)Cn2nnc3sc4c(c3c2=O)CCCC4)no1 | 4.3 | 4% | 1% | -3.0% | 8 | 1.4
C=CC[C@H]1CC(Cc2ccccc2)=C[C@H](CC=C)N1 | 3.2 | 17% | -4% | -0.8% | -3 | -0.1
CC(=O)NNc1cc(C)nc(N)n1 | 5.0 | -16% | 1%[15.4 µM] | 0.3% | -20 | -0.1
CCSc1nnc(NC(=O)CSc2nc3c(c(=O)n2CCOC)SC(C)C3)s1 (centres undefined) | 0.2 | -10% | ? | 0.2% | 3 | -0.1
NC(=O)CC(NC(=O)Cc1ccc(Br)cc1)c1ccc(NC2CCCCCCC2)c([N+](=O)[O-])c1 (centres undefined) | . | -13% | . | -0.1% | 0 | -0.7
O=C(CCN1C(=O)c2ccncc2C1=O)Nc1ccc(F)cc1 | 2.4 | -2% | 34% | 1.1% | 7 | -0.8
COc1ccc(-c2cc3cc(OC)c(OC)cc3cn2)cc1 | . | 1% | -20% | 3.4% | -1 | -0.1
O=C(CN1C(=O)NC2(CCCC2)C1=O)Nc1cc(C(F)(F)F)ccc1N1CCCCC1 | . | 0% | -4% | -9.6% | -2 | 2.2
CCOc1cc2c3c(c1)C(C)=CC(C)(C)N3C(=O)C2=O | 5.4 | 3% | -27% | -1.2% | -10 | ?
Cc1cc(N2CCCCC2)n2ncc(-c3ccccc3)c2n1 | -2.2 | 6% | 2% | -29% | -5 | -0.6
O=C(Cc1ccc(NC2=NC3CS(=O)(=O)CC3S2)cc1)NCCc1ccccc1 (centres undefined) | -5.1 | 1% | -31%[inhibitor] | 0.9% | 13 | 0.4
O=C(c1ccc(Cl)cc1)c1cc([N+](=O)[O-])ccc1N1CCOCC1 | 1.1 | 18% | -3%[15.4 µM] | . | 44 | 1.8
CCn1c(/C=N/c2nc3ccccc3n2C)nc2ccccc21 | 1.6 | 6% | 6% | -10% | 9 | 0.5
O=C1C(Cl)=C(Nc2ccccc2O)C(=O)N1c1ccccc1 | 14 | -25% | -49%[inhibitor] | 1.0% | -6 | -0.9
COc1cc(Cl)ccc1OCc1cc(C(=O)N2CCCCCC2)no1 | . | 8% | -1% | 1.7% | 25 | 1.0
O=C(CCC(=O)N1CCN(C2CCCC2)CC1)Nc1nnc(C(F)(F)F)s1 | 3.9 | -4% | 0% | -0.2% | -3 | 0.4
CCCc1nc(N)sc1C(=O)OCC | -3.3 | -3%[15.4 µM] | 0% | -0.7% | 4 | 0.2
CC(C)C(=O)Nc1ccccc1N1CCN(S(C)(=O)=O)CC1 | 5.6 | 4% | 0% | -1.1% | 20 | 2.0
CCOc1ccc(-n2ccnc2SCC(=O)Nc2cc(C)on2)cc1 | 1.1 | 17% | -10%[15.4 µM] | . | 7 | -0.8
Cc1cc(C)nc(NC(=S)Nc2ccc(Br)cc2Cl)c1 | 8.4 | . | 7%[15.4 µM] | . | -10 | -0.3
CC(C)n1cnc2cc(NCc3ccccn3)ccc21 | -1.2 | -6% | 11% | -11% | 2 | -0.6
CN(C)CCCNC(=S)NCC(c1ccc(Cl)cc1Cl)c1c[nH]c2ccccc12 (centres undefined) | 4.6 | 9% | 12%[15.4 µM] | . | -3 | 4.7
COc1ccc(-c2c3c(=O)n(C)c(=O)n(C)c3cn2-c2ccc(O)cc2)cc1 | 5.0 | 4% | 23%[15.4 µM] | . | 13 | 1.4
C[C@H](CO)N1C[C@H](C)[C@@H](CN(C)C(=O)Nc2ccccc2)Oc2ccc(NC(=O)Cn3cnnn3)cc2C1=O | . | 7% | . | -1.9% | 14 | -0.4
COCC(=O)N1CCC(Oc2ccc(C(=O)NC3Cc4ccccc4C3)cc2)CC1 | . | 3% | 5%[15.4 µM] | -1.8% | -6 | 0.6
CCOC(=O)c1c(C)[nH]c(C(=O)COC(=O)CCNS(=O)(=O)c2ccc(NC(C)=O)cc2)c1C | . | 6% | -14% | 2.0% | 6 | -0.8
Cc1ccc(C)c(NC(=O)C(CC(=O)O)Cc2ccccc2)c1 (centres undefined) | -7.4 | -1% | -5%[15.4 µM] | -2.4% | 8 | 0.7
COc1ccccc1NC(=O)CCS(=O)(=O)c1ccc2c(c1)NC(=O)C(C)S2 (centres undefined) | -2.0 | -7% | 9% | 0.5% | -20 | 0.4
O=C(CC1(O)C(=O)N(Cc2ccccc2)c2ccccc21)c1ccncc1 (centres undefined) | 2.0 | 10% | 9% | -0.7% | 11 | 0.2
CCOc1ccc(C(=O)CCC(=O)NN2C(=O)NC3(CCCCC3)C2=O)cc1 | . | 0% | 4% | 0.2% | 2 | -0.8
CCn1nnnc1SCC(=O)Nc1nc2ccccc2s1 | 4.1 | -1% | -23%[15.4 µM] | . | 1 | 0.0
COc1ccc(/C=C/C(=O)O)cc1Cl | 4.0 | -4% | 3%[15.4 µM] | . | 0 | -0.8
O=C(CSc1ncn[nH]1)Nc1ccc([N+](=O)[O-])cc1Br | 1.1 | -5% | -11% | . | -1 | -0.5
CCN(CC)CCOC(=O)c1c(C)oc2ccc(O)cc12 | -0.5 | -4% | 3% | -1.2% | 13 | 0.4
CC(OC(=O)C1CCN(c2ccc(C(F)(F)F)cn2)CC1)C(=O)Nc1cccc([N+](=O)[O-])c1 (centres undefined) | . | -11% | 22% | -4.4% | 46 | 1.4
CCC(=O)N1N=C(c2ccc(Cl)cc2)CC1c1ccco1 (centres undefined) | 1.2 | -12% | 5%[15.4 µM] | . | 12 | 0.8
CCn1c(=O)c2cc(C(=O)NC3CCCCCC3)sc2c2ccccc21 | . | . | . | 3.5% | 6 | 0.0
COc1cc(OC)cc(-c2nnc(SCC(=O)N3c4ccccc4Sc4ccccc43)o2)c1 | . | 4%[15.4 µM] | -11% | -2.8% | -28 | 0.1
O=C1c2ccccc2C(=O)N1CCCC(=O)N1CCCc2ccccc21 | -0.9 | 2% | ? | 1.9% | 7 | 1.4
CCCCn1c(N)c(N(CCOC)C(=O)c2sc3cc(F)ccc3c2Cl)c(=O)[nH]c1=O | . | 0% | 6%[15.4 µM] | . | 20 | -0.3
CCOC(=O)c1cnn(-c2ccccc2)c1-n1cccc1 | -1.1 | -2% | -2% | 1.3% | -9 | 0.3
c1coc(-c2nc(-c3ccco3)c(-c3ccco3)nc2-c2ccco2)c1 | ? | 8% | 14% | ? | -2 | -0.2&-0.6
Clc1ccc(OCc2nnc3n2N=C(c2ccc4c(c2)OCCO4)CS3)c(Cl)c1 | -0.3 | -13% | -4% | -0.1% | -3 | 0.9
O=C(NCC1CCCO1)Nc1cccc(Cl)c1 (centres undefined) | 0.3 | 12% | -17% | 0.6% | 10 | -0.6

Further records.
SMILES | Menin MLL FP FL | gsp antag | gsp agonist | ClpP mod | TRPML1 blocker | TRPML1 agonist
CCOCCOC(=O)C1=C(C)NC2=C(C(=O)CC(c3cccs3)C2)C1c1ccsc1 (centres undefined) | 1.7 | -1% | ? | 3.0% | 6 | 0.1
Cc1c(C)n(C)c2ccc(C(=O)NCCCN(C)C3CCCCC3)cc12 | 3.8 | 7% | -1% | -5.4% | 16 | 0.2
O=C(N/N=C/c1ccccc1Cl)c1[nH]c2ccc(Br)cc2c1-c1ccccc1 | 1.1 | 31% | 9%[15.4 µM] | . | -21 | 71*
C/C(CC(=O)Nc1ccc(Br)cc1)=N\NC(=O)Cc1csc(N)n1 | -3.6 | -1% | -15%[15.4 µM] | . | -12 | 0.2
COc1ccc(OCCN2C(=O)NC(C)(c3ccc(C)cc3)C2=O)cc1 (centres undefined) | -1.4 | -16% | -19% | 0.7% | 11 | 0.6
CCc1cccc(C)c1NC(=S)NCCc1c(C)[nH]c2ccc(C)cc12 | 3.8 | -12% | 12% | 1.5% | 1 | -0.6
CC1CCCN(S(=O)(=O)c2ccc(NC(=O)[C@@H]3CCCN3C(=O)c3cccs3)cc2)C1 (some centres undefined) | . | -8% | -16% | -4.2% | -6 | 2.6
Cc1ccc(-c2csc(N(CCCN3CCOCC3)C(=O)c3ccco3)n2)cc1 | 6.0 | ? | -6% | 2.2% | 71 | 1.4
Cc1ccccc1C(=O)NCC(=O)NNC(=S)NC(=O)c1ccccc1 | 4.8 | 0% | -2% | -1.0% | 28 | 1.5
COc1cc(CNC(C)C23CC4CC(CC(C4)C2)C3)cc(OC)c1OC (centres undefined) | 7.5 | 15% | -4%[15.4 µM] | -2.0% | 12 | -0.6
CC(=O)NC(c1cccc(F)c1)c1nc(-c2cnn(C)c2)cs1 (centres undefined) | . | . | . | -0.8% | 6 | 0.3
COc1ccc(/C=C(\NC(=O)c2ccc(C)cc2)C(=O)NCCCN2CCOCC2)cc1OC | 0.1 | 5% | 11% | . | -9 | -0.3
Cc1cccc(Nc2ccccc2C(=O)OCC(=O)NCc2ccco2)c1C | 1.3 | -17% | -10% | 87% | 49 | 0.4
